Assay outcomes: PubChem BioAssay, National Center for Advancing Translational Sciences (NCATS)
Cruzain inh Det = blocks cruzain activity in presence of Triton detergent; P25779; purified cruzain, Z-FR-AMC fluorescence, 0.01% Triton; Potency, µM, inactives show max response, negative = inhibition, usual class: inhibitors; 200,000 tested, 0.43% active; AID 1478; active = well fitted curve in the direction sought with a large enough effect; inconclusive = small, poorly fitted or top-dose-only effect, or another doubt; inactive = no such curve, though single readings can be large; an effect the other way counts as inactive or inconclusive;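 note: plate controls were neutral wells for no effect and buffer without enzyme for full effect; nearly all actives have a fitted effect of over 40% in size; top concentration of the series not given in the record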
Target sequence (P25779 123-467 limits assumed): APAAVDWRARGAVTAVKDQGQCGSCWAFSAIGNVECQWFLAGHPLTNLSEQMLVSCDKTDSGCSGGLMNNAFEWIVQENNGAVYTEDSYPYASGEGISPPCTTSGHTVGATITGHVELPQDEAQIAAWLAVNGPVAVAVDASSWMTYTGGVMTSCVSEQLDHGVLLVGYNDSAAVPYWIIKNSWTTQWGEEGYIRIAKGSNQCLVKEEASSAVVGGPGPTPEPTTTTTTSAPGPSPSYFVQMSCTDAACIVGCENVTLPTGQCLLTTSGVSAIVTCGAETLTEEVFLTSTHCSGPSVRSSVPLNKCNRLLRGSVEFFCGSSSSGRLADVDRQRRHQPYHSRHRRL
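Z-FR-AMC hydrolysis (2 uM substrate) by cruzain (1.5 nM) monitored kinetically at ex 360/em 450 nm after 15 min room-temperature compound exposure; 0.01% Triton X-100, pH 5.5, 5 mM DTT.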
RE007 growth inh = less growth of the S. pombe RE007 Vpr strain; S. pombe RE007 Vpr strain, BacTiter-Glo ATP luminescence, 24 h; control for the full effect not named in the record; AID 651644; Potency, µM (series often up to 92.2 µM), for inactives: top-dose activity change, negative = less growth; 360,000 tested, 0.21% active; active = well fitted falling curve with a large enough effect; inconclusive = small, poorly fitted or top-dose-only effect; inactive = no such curve, though single readings can be large or run the other way;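 note: % is set by controls: 0 for no effect and ±100 for the full control effect; nearly all actives have a fitted effect of over 50% in size; the assay follows cell death caused by Vpr and the record does not say whether a fall means rescue or toxicity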
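Fission yeast strain RE007, carrying one chromosomally integrated HIV-1 vpr copy, was seeded at OD 0.01 in PMG+AL medium with 23 nL pinned compound. After 24 h at 30 °C and 99% humidity, viability was read by BacTiter-Glo luminescence.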
LASV entry inh = blocks Lassa virus binding to or entry into cells | 300,000 tested, 1.2% active | Lassa virus pseudotype entry inhibition, cell reporter; control for the full effect not named in the record | AID 540256 | Potency, µM (top dose mostly 37.9 µM), inactives show top-dose activity change, negative = inhibition, most hits filed as inhibitors; active means well fitted inhibition curve with a large enough effect; inconclusive means small, poorly fitted or top-dose-only effect, or effect the other way; inactive means flat fitted curve, though single readings scatter; tested in HEK293 cells; note: % is set by controls: 0 for no effect and ±100 for the full control effect; nearly all actives have a fitted effect of over 50% in size; luciferase read-out
Marburg entry inh = inhibitors of Marburg virus binding or cell entry; 300,000 tested, 1.8% active; Marburg virus pseudotyped entry inhibition, cell reporter; control for the full effect not named in the record; about a third of the inactives were read at about 46 µM; Potency, µM (series often up to 37.8 µM), for inactives: top-dose activity change, negative = inhibition, actives largely listed as inhibitors; active = well fitted inhibition curve with a large enough effect; inconclusive = small, poorly fitted or top-dose-only effect, or effect the other way; inactive = flat fitted curve, though single readings scatter; tested in HEK293 cells; about a fifth of its hits are not listed in these tables; note: % is set by controls: 0 for no effect and ±100 for the full control effect; luciferase read-out
NS1 inh = influenza NS1 inhibition; S. cerevisiae slowed by influenza A NS1, growth recovery by OD600; Potency, µM (highest dose often 46.1 µM), inactives show at the top dose activity, positive = more growth; 270,000 tested, 0.4% active; AID 2326; note: actives are rising curves; nearly all actives have a fitted effect of over 50% in size
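A cell-based growth assay was used: compounds that relieve NS1-induced slow growth of budding yeast raise OD600. Assay medium was yeast nitrogen base with ammonium sulphate and -URA supplement, pH 6.0, with 2% galactose.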
Cruzain inh noDet = cruzain (T. cruzi) inhibition without detergent; purified cruzain, Z-FR-AMC fluorescence, no detergent; Potency, µM, for the others: max response, negative = inhibition, usual class: inhibitors; 200,000 tested, 2.3% active; AID 1476; active = well fitted curve in the direction sought with a large enough effect; inconclusive = small, poorly fitted or top-dose-only effect, or another doubt; inactive = no such curve, though single readings can be large; an effect the other way counts as inactive or inconclusive;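 note: plate controls were enzyme without inhibitor for no effect and buffer without enzyme for full effect; nearly all actives have a fitted effect of over 40% in size; top concentration of the series not given in the record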
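Purified cruzain at 1.5 nM, pre-incubated 15 min with compound at room temperature in 100 mM sodium acetate pH 5.5, 5 mM DTT, 0.00005% Triton X-100. Reaction started with 2 uM Z-FR-AMC; AMC fluorescence increase over 60 s gives rate.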
StopGo reporter = FMDV 2A StopGo reporter, luciferase signal. Potency, µM (titrated, usually from 57.9 µM), without a hit: at the top dose signal change, negative = less light. 410,000 tested, 1.2% active. human cells with a luciferase reporter of 2A StopGo recoding; control for the full effect not named in the record; active = well fitted falling curve with a large enough effect; inconclusive = small, poorly fitted or top-dose-only effect; inactive = no such curve, though single readings can be large or run the other way; tested in HEK293T cells; note: % is set by controls: 0 for no effect and ±100 for the full control effect; nearly all actives have a fitted effect of over 45% in size; luciferase light after 4 h
SARS PLP yeast = blocks SARS-CoV papain-like protease in a yeast assay. AID 485353. S. cerevisiae expressing SARS-CoV PLpro, growth rescue; control for the full effect not named in the record. 330,000 tested, 0.19% active. Potency, µM (series often up to 32.9 µM), inactives show at the highest dose activity, positive = growth rescue; note: 0% is about no effect; nearly all actives have a fitted effect of over 55% in size; growth read by luminescence after 48 h
* marks the source's active call; other numbers are inactive results; u = inconclusive; x = not tested or not shown; & = joins results of further samples; [ ] = remark or other dose. Unless noted, calls come from the whole dose curve; as a rule, active means well fitted rising curve with a large enough effect; inconclusive means small, poorly fitted or top-dose-only effect; inactive means no such curve, though single readings can be large or run the other way. Potency is the fitted concentration of half-maximal effect.

Each structure is followed by: Cruzain inh Det | RE007 growth inh | LASV entry inh | Marburg entry inh | NS1 inh | Cruzain inh noDet | StopGo reporter | SARS PLP yeast
1: O=C(CSc1ccc(-c2ccc(-n3cccn3)cc2)nn1)Nc1ccc([N+](=O)[O-])cc1
  x | -4% | 14% | -3% | x | x | 14% | x
2: CC(=O)c1ccc(S(=O)(=O)N(CCCO)Cc2cc3cc(C)ccc3[nH]c2=O)cc1
  x | -4% | -19%[46.1 µM] | -10%[46.1 µM] | -5% | x | 47% | -2%
3: Cn1ccc2cc(S(=O)(=O)N3CCCN(C(=O)Nc4ccc(Br)cc4)CC3)ccc21
  -3.7% | x | -2%[46.1 µM] | x | x | u | 1% | x
4: COc1cc(C(=O)NCCC(=O)NC(C)C)cc(OC)c1OC
  x | 13% | -15% | 21%[46.1 µM] | x | x | 5% | 0%
5: Cc1ccc(/C=[N+](\[O-])c2ccccc2C)o1
  x | 5% | x | x | 4% | x | 4% | 16%
6: Cc1cccc(C(=O)Nc2c(C(=O)N(C)C)cnn2-c2ccccc2)c1
  x | 18% | 7% | u | 26% | x | -5% | 4%
7: CCOc1ccc(S(=O)(=O)NCCC(=O)N2CCCCCCC2)cc1
  x | -9% | u | 3% | x | x | 11% | -9%
8: CCOC(=O)c1ccc(NC(=O)c2nc(SC)ncc2Cl)cc1
  x | 3% | x | x | 0% | x | -1% | -1%
9: CCOc1ccccc1NC(=O)c1cccc(N2C(=O)CCC2=O)c1
  x | 1% | 14%[46.1 µM] | -4%[46.1 µM] | 5% | x | -9% | 5%
10: O=C(CSc1ccc2nnc(-c3ccccn3)n2n1)Nc1ccccc1F
  x | -13% | -2% | 6% | -4% | x | -8% | 9%
11: Cc1cccc(N2CCN(S(=O)(=O)c3ccc4c(c3)CCN4C(=O)CCC(=O)O)CC2C)c1 (configuration not stated)
  -1.0% | -12% | x | 3% | 8% | u | -28% | 4%
12: O=C(CNC(=O)c1ccco1)NCC(=O)OCc1cccc(C(=O)Oc2ccccc2)c1
  3.5% | 4% | u | 18% | -2% | 8% | 14% | u
13: COc1ccc2c(c1)c1c(c(=O)n(-c3cc(Cl)ccc3C)c(=O)n1Cc1ccc(F)cc1)n2C
  1.7% | x | 14%[46.1 µM] | x | x | 9% | -3% | x
14: Cc1cccn2c(=O)c(C=C(C#N)C#N)c(N3CCN(c4cccc(Cl)c4)CC3)nc12
  x | 8% | u | -25%[46.1 µM] | 5% | x | -12% | -3%
15: NS(=O)(=O)c1ccc(CNc2ccc3ccccc3n2)cc1
  x | -12% | 15% | 3%[46.1 µM] | -2% | x | 15% | 14%
16: CCOC(=O)c1cc(-c2ccc(F)cc2)n(CCC(=O)NC2CCCCC2)c1C
  -4.9% | x | 5%[46.1 µM] | x | x | u | -23% | x
17: CCN1CCN(C(c2cccs2)C(C)NC(=O)c2ccco2)CC1 (configuration not stated)
  5.0% | 7% | 3% | 13% | -4% | 5% | 18% | -10%
18: O=C(c1ccc(Cl)nc1)N1CCN(S(=O)(=O)c2ccccc2)CC1
  x | -15% | x | x | -40% | x | -12% | -2%
19: Cc1cc(NC(=O)CSc2nc(Cc3ccccc3)c(C)[nH]2)no1
  x | 11% | u | 21%[46.1 µM] | 4% | x | 5% | 0%
20: COc1ccc(CCNCc2cc(C)n(-c3ccc(OC)cc3)c2C)cc1
  x | -11% | x | x | -4% | x | -2% | -3%
21: COc1ccc(C2c3c(ncn(CCN4CCOCC4)c3=N)Oc3ccc4ccccc4c32)cc1OC (configuration not stated)
  -11% | 75%&9% | u | 10µM* | 7% | -7% | u | -7%
22: CCn1cc(/C=N\NC(=O)c2ccc(Cl)cc2)cn1
  -4.1% | -19% | 1% | u | 7% | -1% | 13% | 3%
23: C/C(=N\OCC(=O)Nc1nc2ccccc2s1)c1ccccc1
  -8.5% | -26% | 3% | u | -20% | 10% | -9% | -29%
24: CC[C@@H]1C(c2cccc(Cl)c2)=NN(c2ccc(Br)cc2)[C@H]1C(=O)N1CCOC1=O
  -2.7% | 13%[18.4 µM] | x | x | x | u | -20% | -17%
25: COC(=O)[C@@]1(Cc2ccc(F)cc2)[C@H]2c3cc(C(=O)N(C)C)n(CCN4CCOCC4)c3C[C@H]2CN1C(=O)c1ccccc1
  -2.5% | -16% | x | x | x | u | 0% | x
26: Cc1ccc(CNc2oc(-c3ccco3)nc2C#N)cc1
  -7.6% | 14% | -7% | 16% | -54% | -29% | 3% | 13%
27: O=C(Nc1ccc(Cl)c(Cl)c1)c1ccc2c(c1)OCO2
  x | -10% | -28%[46.1 µM] | u | -8% | x | 1% | -3%
28: CC1CCC(=C(C#N)c2nc(-c3cc4ccccc4oc3=O)cs2)CC1 (configuration not stated)
  0.9% | -20% | u | u | 12% | u | -9% | -3%
29: Cc1ccc(S(=O)(=O)N2CCOCC2)cc1NC(=O)Nc1ccc([N+](=O)[O-])cc1
  x | 9% | 25% | -6% | x | x | u | -1%
30: Cc1ccc(NC(=O)Nc2ccccc2)cc1[N+](=O)[O-]
  -14% | -18% | 16% | 10% | -8% | 13% | 13% | 9%
31: CCS(=O)(=O)N1CCCC(C(=O)NCc2cccc(OC)c2)C1 (configuration not stated)
  3.9% | 6% | 8% | 2% | 1% | 1% | -11% | 8%
32: COC(C/C=C\[C@@H](O)COCc1ccccc1)OC
  x | -1% | x | x | 6% | x | 8% | 0%
33: Cc1ccc2nc(NC(=O)Cn3nc(C)c([N+](=O)[O-])c3C)sc2c1
  -11% | -1% | -13% | -12% | 13% | 9% | 0% | -11%
34: NS(=O)(=O)c1ccc(CNC(=O)c2cc(-c3cccnc3)nc3ccc(Br)cc23)cc1
  x | 11% | x | x | 3% | x | -5% | u
35: CCn1cc(C(=O)O)c(=O)c2cc(F)c(N3CCN(C(=S)Nc4ccc(OC)cc4)CC3)cc21
  x | 8% | 4% | 20%[46.1 µM] | -4% | x | -20% | -3%
36: Cc1c(Cl)cccc1NC(=S)NCc1ccccc1
  x | 2% | 7% | 1% | x | x | 56%[activator] | x
37: CCOc1cc(C2NC(=O)NC(c3ccccc3)=C2C(C)=O)ccc1OC(C)=O (configuration not stated)
  x | -4% | x | x | 4% | x | -11% | -1%
38: C/C=C/C=C/C(=O)OCC(=O)Nc1ccc(Cl)cc1
  x | 1% | 3% | 0%[46.1 µM] | x | x | -11% | -6%
39: CCOc1ccc2nc3c(cc2c1)CN(CCCO)C(=NCCOC)S3
  -15% | -3% | u | -7% | -34% | u | 6% | 2%
40: Cc1cc2nccc(-c3cccnc3)n2n1
  x | 31% | 2% | 3%[46.1 µM] | x | x | -15% | 0%
41: O=C(Nc1ccccc1Br)c1ccc(N2CCCC2=O)cc1
  x | -7% | -3% | 2% | x | x | 8% | -4%
42: NS(=O)(=O)c1ccc(CCN2C(=O)CCC2=O)cc1
  x | 1% | 5%[46.1 µM] | -11%[46.1 µM] | 7% | x | 2% | -3%
43: O=C(/C=C/c1cc(Br)ccc1F)OCC(=O)N1CCCC1
  x | -10% | 10% | u | x | x | -5% | 1%
44: COc1ccc(NC(=O)N2CCCC2C(=O)NCC2CCCCC2)cc1 (configuration not stated)
  x | 4% | 0% | -14%[46.1 µM] | 5% | x | -2% | 0%
45: COc1ccc(NC(=S)Nc2ccc3nc(C)c(C)nc3c2)cc1
  -1.6% | -2% | 1% | -23% | 11% | -4% | -10% | -2%
46: O=C(N/N=C/c1ccc(Cl)cc1)c1cc2c(s1)-c1ccccc1CC2
  u | u | u | u | 4% | u | -10% | -1%
47: COC(=O)[C@H]1[C@H](c2ccccc2)[C@H](C(=O)OC)O[C@H]1c1ccccc1
  x | -7% | 4% | -7%[46.1 µM] | x | x | -11% | x
48: COc1ccc(OC)c(/C=C2\Oc3cc(OCC(=O)N4CC(O)C[C@H]4C(=O)O)ccc3C2=O)c1 (some centres not stated)
  x | -4% | x | x | 21% | x | -23% | 6%
49: CCOc1ccc(N(CC(=O)N2CCC(Cc3ccccc3)CC2)S(C)(=O)=O)cc1
  x | 3% | u | u | -1% | x | u | 1%
50: O=C(CCC(=O)c1cccs1)NCc1ccccc1
  2.5% | -4% | 8% | -3% | 2% | 3% | -14% | -7%
51: CC(C(=O)NCc1ccccn1)c1ccc([N+](=O)[O-])cc1 (configuration not stated)
  x | -3% | 20%[46.1 µM] | -12%[46.1 µM] | 3% | x | -3% | 17%
52: Cc1nnc(SCC(=O)Nc2sc3c(c2C(N)=O)CCCC3)[nH]c1=O
  -4.3% | -13% | 3% | 17%[46.1 µM] | 27% | -3% | 8% | 1%
53: CCCC12CN3CC(CCC)(CN(C1)C3c1c(C)[nH]c(=O)[nH]c1=O)C2=O (configuration not stated)
  0.9% | x | 11%[46.1 µM] | -3%[46.1 µM] | x | -4% | -5% | x
54: CCCn1c(SCC(=O)c2ccc3c(c2)OCCO3)nnc1-c1ccco1
  -1.2% | -14% | u | -11%[46.1 µM] | -20% | 0% | -16% | 4%
55: O=C(Nc1ccccc1C(=O)NCCCN1CCOCC1)c1ccc(Cl)cc1
  x | -6% | 2% | 6% | 11% | x | -13% | -4%
56: O=C(Nc1ccc(S(=O)(=O)NC2=NCCCCC2)cc1)c1ccc(Cl)cc1Cl
  x | -3% | -27% | -17% | x | x | -12% | 9%
57: CC1CCCN(C(=O)C2CCN(CC(C)c3ccccc3)CC2)C1 (configuration not stated)
  -1.5% | 7% | -6% | 8% | -4% | -4% | 1% | -4%

Of the compounds above, these contain a cyano group:
Each structure is followed by: Cruzain inh Det | RE007 growth inh | LASV entry inh | Marburg entry inh | NS1 inh | Cruzain inh noDet | StopGo reporter | SARS PLP yeast
14: Cc1cccn2c(=O)c(C=C(C#N)C#N)c(N3CCN(c4cccc(Cl)c4)CC3)nc12
  x | 8% | u | -25%[46.1 µM] | 5% | x | -12% | -3%
26: Cc1ccc(CNc2oc(-c3ccco3)nc2C#N)cc1
  -7.6% | 14% | -7% | 16% | -54% | -29% | 3% | 13%
28: CC1CCC(=C(C#N)c2nc(-c3cc4ccccc4oc3=O)cs2)CC1 (configuration not stated)
  0.9% | -20% | u | u | 12% | u | -9% | -3%
